HIV Env fusion = blocks HIV Env-driven cell-cell fusion; HeLa-JRFL Env/CEM21 cell fusion, luciferase; inhibition, % at 12.3 µM; actives 1.1% (n = 360,000); AID 651610;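 active = mean replicate inhibition score of at least 50 and every replicate individually at or above 50; inconclusive = only one of the two criteria met; inactive = mean below 50 and not all replicates reaching 50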;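 also: 0% = plate neutral controls and 100% = maraviroc near 300 nM; one replicate is shown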
UUG fidelity = alters start codon recognition fidelity in yeast | S. cerevisiae UUG-firefly luciferase reporter, luminescence/redox ratio | activity score, % at 18.7 µM | actives 0.13% (n = 350,000);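 active = replicate mean at a twofold rise or more, about +100% in these data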;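 also: firefly luciferase made from a UUG start codon reports start codon fidelity; reporter light over untreated wells divided by growth signal over untreated wells; some hits fall short of that in this replicate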
Rce1 inh = inhibitors of yeast Ras-converting enzyme; calls only; Q03530; AID 2563; actives 0.27% (n = 290,000); yeast membranes, quenched prenylated peptide cleavage fluorescence;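 active = fall in fluorescence gain of 50% or more versus controls, with final raw signal at or below 3038400; inconclusive = same 50% fall but final raw signal above 3038400; inactive = fall in fluorescence gain under 50%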;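 also: plate controls were neutral control wells for no effect and wells lacking membranes for full effect; tested at 10 µM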
Target sequence (Q03530 whole entry, looked up): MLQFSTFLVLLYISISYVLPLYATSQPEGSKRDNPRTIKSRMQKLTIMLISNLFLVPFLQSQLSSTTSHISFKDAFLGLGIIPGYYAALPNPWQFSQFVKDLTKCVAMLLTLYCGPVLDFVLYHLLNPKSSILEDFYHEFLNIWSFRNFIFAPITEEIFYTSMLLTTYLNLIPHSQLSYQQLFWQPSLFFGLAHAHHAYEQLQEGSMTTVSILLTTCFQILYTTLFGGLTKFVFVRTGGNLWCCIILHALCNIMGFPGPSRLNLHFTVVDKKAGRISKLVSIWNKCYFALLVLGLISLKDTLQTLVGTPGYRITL
CSC inhib = blocks cancer stem cells. cancer stem cell-like cells viability, luminescence. inhibition, % at 7.5 µM. actives 1.1% (n = 300,000);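 active = mean at 75% or more and at least half the replicates too; inconclusive = mean and replicates disagree; tested in HMLE shEcad cells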;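 also: 0% = median of negative and 100% = median of positive control wells; the first replicate is given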
MT1-MMP act inh = MT1-MMP (human) activation inhibition. AID 651647. HT1080 RFP-PRO-GFP cells, GFP/RFP ratio fluorescence, overnight; percent of plate control window, DMSO zero. actives 0.061% (n = 360,000). P50281. GFP/RFP ratio change, % at 20 µM;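 active = GFP/RFP ratio change of at least 30% with cell ATP level not reduced by more than half and red fluorescence within 50% of control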; also: strong numbers were not always called active
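Material – HT1080 RFP-PRO-GFP cells · Control set – DMSO wells and RFP-L50D-GFP cells · Incubation – overnight cell settling, then overnight compound exposure, 37 °C, 5% CO2 · Compound dosing – single-point 20 µM compound, 1% DMSO · Read-out – GFP/RFP fluorescence ratio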
PABP polyA inh = PABP-poly(A) binding inhibition; P11940; PABP-poly(A) RNA binding, fluorescence polarization; inhibition, % at 35 µM; actives 1% (n = 290,000);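 active = 50% or more with normal probe brightness, or confirmed in later tests; inconclusive = above 50% with abnormal brightness, or retests that disagree; inactive = below 50% or failed in later tests; about a fifth of its hits are not listed in these tables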;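 also: calls also rest on retests at 20 µM and on dose response follow-up; controls were probe without protein and protein plus probe with vehicle; some compounds called inactive have numbers as strong as hits; many hits fall short of the cut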
Target sequence (P11940 whole entry, looked up): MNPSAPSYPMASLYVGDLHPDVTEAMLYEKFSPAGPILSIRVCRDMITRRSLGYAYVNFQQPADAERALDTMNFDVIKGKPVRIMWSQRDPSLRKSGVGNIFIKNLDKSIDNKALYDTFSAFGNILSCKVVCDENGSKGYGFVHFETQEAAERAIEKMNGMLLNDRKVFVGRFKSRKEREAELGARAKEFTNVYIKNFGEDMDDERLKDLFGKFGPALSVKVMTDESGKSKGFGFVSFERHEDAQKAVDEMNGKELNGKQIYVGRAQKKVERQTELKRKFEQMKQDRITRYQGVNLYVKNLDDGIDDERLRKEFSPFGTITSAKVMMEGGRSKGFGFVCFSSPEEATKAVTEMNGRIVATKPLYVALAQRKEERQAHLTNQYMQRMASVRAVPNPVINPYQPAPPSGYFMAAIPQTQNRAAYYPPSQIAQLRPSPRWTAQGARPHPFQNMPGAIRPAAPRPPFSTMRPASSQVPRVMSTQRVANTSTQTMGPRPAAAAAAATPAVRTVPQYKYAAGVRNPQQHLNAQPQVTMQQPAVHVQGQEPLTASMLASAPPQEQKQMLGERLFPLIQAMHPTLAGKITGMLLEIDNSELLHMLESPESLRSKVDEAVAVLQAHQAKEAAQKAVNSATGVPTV
eIF4H FP inh = inhibitors of RNA binding by human eIF4H; Q15056; eIF4H fluorescence polarization binding assay; inhibition, % at 35 µM; actives 0.94% (n = 290,000);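 active = 50% or more with normal probe brightness, or confirmed in later tests; inconclusive = above 50% with abnormal brightness, or retests that disagree; inactive = below 50% or failed in later tests; about a fifth of its hits are not listed in these tables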;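 also: calls also rest on retests at 20 µM and on dose response follow-up; 0% = protein and probe with vehicle and 100% = probe without protein; strong numbers were not always called active; many hits fall short of the cut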
eIF4H FP inh retest = second read-out of eIF4H FP inh, no call of its own (marks repeat the call); inhibition, %; compound at 20 µM; confirmation average;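 mean of two retest wells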
PABP polyA inh retest = recorded beside PABP polyA inh, whose call it bears; inhibition, %; compound at 20 µM; confirmation repeats;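 mean of two retest wells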
MT1-MMP act inh RFP = further read-out of MT1-MMP act inh, marked with its call; RFP signal change, %; measured here: RFP expression control read;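 0 = vehicle wells; hits needed this value within 50% of zero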
* = called active by the depositor. An excerpt; rates above refer to the full screens.

What do the screens show for `O=C(CN(C(=O)CCC(=O)Nc1nccs1)c1cccc(F)c1)NCc1ccccc1`?
HIV Env fusion: -7; UUG fidelity: -2; Rce1 inh: inactive; CSC inhib: -16; MT1-MMP act inh: -4; PABP polyA inh: -7; eIF4H FP inh: -16; MT1-MMP act inh RFP: -1

What do the screens show for `CCNC(=O)n1nccc1C(C)Oc1ccc(Cl)cc1` (stereo unspecified)?
HIV Env fusion: 10; UUG fidelity: 1; Rce1 inh: inactive; CSC inhib: -8; MT1-MMP act inh: 6; PABP polyA inh: 0; eIF4H FP inh: -5; MT1-MMP act inh RFP: -2

Results for CCCNC(=O)Cc1ccsc1 ?
HIV Env fusion: -13; UUG fidelity: -13; Rce1 inh: inactive; CSC inhib: -6; MT1-MMP act inh: 0; PABP polyA inh: -3; eIF4H FP inh: -17; MT1-MMP act inh RFP: 3

Results for CC(=O)c1cccc(NC(=O)CCc2nc3sc4c(c3c(=O)[nH]2)CCCC4)c1 ?
HIV Env fusion: 5; Rce1 inh: inactive; CSC inhib: -7; MT1-MMP act inh: -12; MT1-MMP act inh RFP: -3

What do the screens show for `CCc1ccc(CN(C)C(=O)C2=CC=CN3CCS(=O)(=O)N=C23)cc1`?
HIV Env fusion: 5; UUG fidelity: 6; MT1-MMP act inh: -1; MT1-MMP act inh RFP: 0

Results for CCOc1cc(C(=O)Nc2ccc(S(=O)(=O)Nc3cc(C)on3)cc2)cc(OCC)c1OCC ?
UUG fidelity: -18; Rce1 inh: inactive; CSC inhib: -5; MT1-MMP act inh: 5; PABP polyA inh: -6; eIF4H FP inh: -4; MT1-MMP act inh RFP: 1

How did CCn1c(SCc2nc3cc(OC)c(OC)cc3c(=O)[nH]2)nnc1-c1ccncc1 do in these assays?
UUG fidelity: -15; Rce1 inh: inactive; CSC inhib: 0; MT1-MMP act inh: 4; PABP polyA inh: 5; eIF4H FP inh: -6; MT1-MMP act inh RFP: 1

Results for Cc1cc2oc(C(=O)Nc3ccc(S(=O)(=O)Nc4nccs4)cc3)cc(=O)c2cc1Cl ?
HIV Env fusion: 30; CSC inhib: 1; MT1-MMP act inh: -3; PABP polyA inh: 0; eIF4H FP inh: 28; MT1-MMP act inh RFP: -4

Results for CCOc1ccc(NC(=O)CN2CCN(CC(=O)Nc3ccc(N(C)C)cc3)CC2)cc1 ?
HIV Env fusion: 0; UUG fidelity: -4; Rce1 inh: inactive; MT1-MMP act inh: 3; PABP polyA inh: 12; eIF4H FP inh: -3; MT1-MMP act inh RFP: 0

How did Nc1cccc(-c2nnc3n2CCCCC3)c1 do in these assays?
HIV Env fusion: 12; UUG fidelity: -17; Rce1 inh: inactive; CSC inhib: -3; MT1-MMP act inh: 3; PABP polyA inh: 11; eIF4H FP inh: 4; MT1-MMP act inh RFP: 5

How did Cc1c(-c2n[nH]c(=S)n2-c2ccc(Br)cc2)nnn1-c1ccc(Cl)cc1 do in these assays?
HIV Env fusion: 14; Rce1 inh: inactive; MT1-MMP act inh: 11; PABP polyA inh: -9; eIF4H FP inh: 8; MT1-MMP act inh RFP: 2

How did CC(=O)c1ccc(C(=O)Nc2ccc3c(c2)C(=O)NC3=O)cc1 do in these assays?
HIV Env fusion: -8; UUG fidelity: -20; Rce1 inh: inactive; CSC inhib: 2; MT1-MMP act inh: -5; PABP polyA inh: -9; eIF4H FP inh: -4; MT1-MMP act inh RFP: -1

What do the screens show for `Fc1ccc(NC(=S)N2CCN(c3ccccn3)CC2)cc1Cl`?
HIV Env fusion: 13; UUG fidelity: -13; Rce1 inh: inactive; CSC inhib: -3; MT1-MMP act inh: 6; MT1-MMP act inh RFP: 2

Results for CCc1nnc(NC(=O)/C=C/c2ccc(C)o2)s1 ?
HIV Env fusion: -43; Rce1 inh: inactive; CSC inhib: -18; MT1-MMP act inh: 1; PABP polyA inh: 4.4*; eIF4H FP inh: 57; eIF4H FP inh retest: 33; PABP polyA inh retest: 56*; MT1-MMP act inh RFP: 4

How did C[C@@H](C(=O)OCC(=O)c1ccc(F)c(F)c1)N1C(=O)C2CCCCC2C1=O (stereo partly specified) do in these assays?
UUG fidelity: -5; CSC inhib: -18; MT1-MMP act inh: 1; MT1-MMP act inh RFP: 2

How did O=C(NCCS(=O)(=O)N1CCN(c2ccccc2)CC1)C1CC1 do in these assays?
HIV Env fusion: -2; UUG fidelity: 9; Rce1 inh: inactive; CSC inhib: 1; MT1-MMP act inh: 4; MT1-MMP act inh RFP: -2

How did O=C(O)C(Cc1ccccc1)N1C(=O)/C(=C/c2ccccc2)SC1=S (stereo unspecified) do in these assays?
HIV Env fusion: -21; UUG fidelity: 3; Rce1 inh: inactive; CSC inhib: -3; MT1-MMP act inh: 1; PABP polyA inh: 19; eIF4H FP inh: 4; MT1-MMP act inh RFP: 8

How did N#C/C(=C\c1cccnc1)C(=O)Nc1ccccc1[N+](=O)[O-] do in these assays?
UUG fidelity: 2; Rce1 inh: inactive; CSC inhib: -23; MT1-MMP act inh: -3; PABP polyA inh: 55*; eIF4H FP inh: 66*; MT1-MMP act inh RFP: 2

How did CCCS(=O)(=O)N1CCN=C1SCc1cccc(C)c1 do in these assays?
HIV Env fusion: -17; UUG fidelity: -12; Rce1 inh: inactive; CSC inhib: -4; MT1-MMP act inh: 1; PABP polyA inh: -2; eIF4H FP inh: 4; MT1-MMP act inh RFP: 2

What do the screens show for `O=C1NC(c2ccccc2)=NC1(NS(=O)(=O)c1ccccc1)C(F)(F)F` (stereo unspecified)?
HIV Env fusion: -62; UUG fidelity: -15; Rce1 inh: inactive; CSC inhib: -7; MT1-MMP act inh: -3; PABP polyA inh: -6; eIF4H FP inh: -16; MT1-MMP act inh RFP: -1

How did O=C(NCC(c1cccnc1)N1CCN(c2ccccc2F)CC1)c1ccco1 (stereo unspecified) do in these assays?
HIV Env fusion: inconclusive; UUG fidelity: -15; Rce1 inh: inactive; CSC inhib: -8; MT1-MMP act inh: -2; PABP polyA inh: 2; eIF4H FP inh: -7; MT1-MMP act inh RFP: -10

How did CCOc1cc(C(=O)OCC(=O)NCc2ccco2)cc(OCC)c1OCC do in these assays?
UUG fidelity: 6; Rce1 inh: inactive; CSC inhib: -8; MT1-MMP act inh: 4; PABP polyA inh: 23; eIF4H FP inh: 8; MT1-MMP act inh RFP: 1

How did CC(NC(=O)c1ccccc1)C(=O)N/N=C/c1ccc(O)cc1 (stereo unspecified) do in these assays?
HIV Env fusion: -15; UUG fidelity: -10; Rce1 inh: inactive; CSC inhib: -9; MT1-MMP act inh: 7; PABP polyA inh: -13; eIF4H FP inh: -1; MT1-MMP act inh RFP: 8

How did C=CCNC(=O)c1cc(Cl)cc(Cl)c1 do in these assays?
HIV Env fusion: 9; Rce1 inh: inactive; CSC inhib: 3; MT1-MMP act inh: -1; PABP polyA inh: -12; eIF4H FP inh: 1; MT1-MMP act inh RFP: 3

How did Cc1cccc(NC(=O)/C=C/c2ccc(Cl)cc2)n1 do in these assays?
HIV Env fusion: -192; Rce1 inh: inactive; CSC inhib: 28; MT1-MMP act inh: -8; PABP polyA inh: -8; eIF4H FP inh: -2; MT1-MMP act inh RFP: -18

What do the screens show for `COc1ccc(CSc2nncn2C)cc1[N+](=O)[O-]`?
HIV Env fusion: -2; Rce1 inh: inactive; CSC inhib: -11; MT1-MMP act inh: 4; PABP polyA inh: -6; eIF4H FP inh: -10; MT1-MMP act inh RFP: 2

Results for COc1ccc2[nH]cc(C(=O)CN(C)CCc3ccc(OC)c(OC)c3)c2c1 ?
UUG fidelity: 3; CSC inhib: -10; MT1-MMP act inh: 3; PABP polyA inh: -8; eIF4H FP inh: 1; MT1-MMP act inh RFP: 5

What do the screens show for `Nc1ccccc1SCC1CSc2nc3ccccc3c(=O)n21` (stereo unspecified)?
HIV Env fusion: 13; UUG fidelity: 5; Rce1 inh: inactive; CSC inhib: -5; MT1-MMP act inh: -1; PABP polyA inh: inconclusive; eIF4H FP inh: -1; MT1-MMP act inh RFP: -2

How did CCn1cc(C(=O)O)c(=O)c2cc(F)c(N/N=C/c3ccccc3[N+](=O)[O-])cc21 do in these assays?
HIV Env fusion: -12; UUG fidelity: -10; Rce1 inh: inactive; CSC inhib: 22; MT1-MMP act inh: -20; PABP polyA inh: -3; eIF4H FP inh: 71; eIF4H FP inh retest: -1; PABP polyA inh retest: 8; MT1-MMP act inh RFP: -29

Results for CCOC(=O)Cc1csc(NC(=O)Cc2ccc(C)cc2)n1 ?
HIV Env fusion: -7; Rce1 inh: inactive; CSC inhib: -1; MT1-MMP act inh: -2; PABP polyA inh: -12; eIF4H FP inh: 0; MT1-MMP act inh RFP: -7

How did Cc1ncc(CN=Cc2ccc(Cl)cc2)c(N)n1 do in these assays?
HIV Env fusion: 3; UUG fidelity: -4; Rce1 inh: inactive; CSC inhib: 0; MT1-MMP act inh: -3; PABP polyA inh: -2; eIF4H FP inh: -6; MT1-MMP act inh RFP: -5

How did COC(=O)c1ccc(NC(=O)C2CCCO2)cc1 (stereo unspecified) do in these assays?
HIV Env fusion: inactive; UUG fidelity: -8; Rce1 inh: inactive; CSC inhib: -13; MT1-MMP act inh: 1; PABP polyA inh: -4; eIF4H FP inh: 3; MT1-MMP act inh RFP: -1

Results for FC(F)C(F)(F)c1cc(-c2ccccc2)n[nH]1 ?
HIV Env fusion: 4; Rce1 inh: inactive; CSC inhib: -12; MT1-MMP act inh: 1; PABP polyA inh: 2; eIF4H FP inh: -3; MT1-MMP act inh RFP: -6

Results for O=C(Cc1cccc2ccccc12)NC(=S)Nc1cccc(C(=O)O)c1 ?
HIV Env fusion: 7; Rce1 inh: inactive; CSC inhib: -8; MT1-MMP act inh: 3; PABP polyA inh: -8; eIF4H FP inh: -4; MT1-MMP act inh RFP: 3

What do the screens show for `CCCCN1C(=O)C(=O)N(CC(=O)Nc2sc(C)c(C)c2C(=O)OC)C1=O`?
UUG fidelity: -12; CSC inhib: 8; MT1-MMP act inh: -2; MT1-MMP act inh RFP: 3

How did c1ccc(-n2nnnc2-c2cccnc2)cc1 do in these assays?
HIV Env fusion: 4; UUG fidelity: -20; Rce1 inh: inactive; CSC inhib: -13; MT1-MMP act inh: 1; PABP polyA inh: 22; eIF4H FP inh: -2; MT1-MMP act inh RFP: 3

How did CCN(C(=O)c1ccc(Cl)c([N+](=O)[O-])c1)c1ccccc1 do in these assays?
HIV Env fusion: -5; CSC inhib: -12; MT1-MMP act inh: -4; PABP polyA inh: -2; eIF4H FP inh: 7; MT1-MMP act inh RFP: -3

What do the screens show for `CCOC(=O)c1c(C)[nH]c(C(=O)COC(=O)C(C)N2C(=O)C3CCCCC3C2=O)c1C` (stereo unspecified)?
HIV Env fusion: -11; UUG fidelity: 1; Rce1 inh: inactive; CSC inhib: -3; MT1-MMP act inh: 7; PABP polyA inh: 1; eIF4H FP inh: 1; MT1-MMP act inh RFP: -3

How did O=C(CCCCCNC(=S)Nc1ccc(Cl)cc1)C[N+](=O)[O-] do in these assays?
HIV Env fusion: -18; UUG fidelity: -6; Rce1 inh: inactive; CSC inhib: -2; MT1-MMP act inh: 3; PABP polyA inh: -2; eIF4H FP inh: -10; MT1-MMP act inh RFP: 3

What do the screens show for `Cc1ccsc1C(=O)N/N=C/C=C/c1ccccc1[N+](=O)[O-]`?
UUG fidelity: -10; Rce1 inh: inactive; MT1-MMP act inh: -1; PABP polyA inh: 3; eIF4H FP inh: 1; MT1-MMP act inh RFP: -4

Results for Cc1ccc(C)c(NC(=S)c2ccc3ccccc3n2)c1 ?
HIV Env fusion: -22; UUG fidelity: -23; Rce1 inh: inactive; CSC inhib: 42; MT1-MMP act inh: 6; PABP polyA inh: 5; eIF4H FP inh: 17; MT1-MMP act inh RFP: 3
